# Screens (PubChem BioAssay)
# eIF4H FP inh = human eIF4H binding inhibitors, primary screen, translation initiation inhibitor project, biochemical, uHTS, fluorescence polarization | eIF4H fluorescence polarization binding assay | inhibition, % at 35 µM | hit rate 0.94% among 290,000 | AID 2012, 2009;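 active means 50% or more with normal probe brightness, or confirmed in later tests; about a fifth of its hits are not listed in these tables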;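 further: calls also rest on retests at 20 µM and on dose response follow-up; 0% = protein and probe with vehicle and 100% = probe without protein; strong numbers were not always called active; many hits fall short of the cut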
# PABP FP inh = PABP poly(A) RNA binding inhibitors, primary screen, biochemical, fluorescence polarization, uHTS | inhibition, % at 35 µM | Polyadenylate-binding protein 1 (Homo sapiens), P11940 | hit rate 1% among 290,000;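 active means 50% or more with normal probe brightness, or confirmed in later tests; about a fifth of its hits are not listed in these tables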;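 further: calls also rest on retests at 20 µM and on dose response follow-up; controls were probe without protein and protein plus probe with vehicle; some compounds called inactive have numbers as strong as hits; many hits fall short of the cut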
# Target sequence (P11940 whole entry, looked up): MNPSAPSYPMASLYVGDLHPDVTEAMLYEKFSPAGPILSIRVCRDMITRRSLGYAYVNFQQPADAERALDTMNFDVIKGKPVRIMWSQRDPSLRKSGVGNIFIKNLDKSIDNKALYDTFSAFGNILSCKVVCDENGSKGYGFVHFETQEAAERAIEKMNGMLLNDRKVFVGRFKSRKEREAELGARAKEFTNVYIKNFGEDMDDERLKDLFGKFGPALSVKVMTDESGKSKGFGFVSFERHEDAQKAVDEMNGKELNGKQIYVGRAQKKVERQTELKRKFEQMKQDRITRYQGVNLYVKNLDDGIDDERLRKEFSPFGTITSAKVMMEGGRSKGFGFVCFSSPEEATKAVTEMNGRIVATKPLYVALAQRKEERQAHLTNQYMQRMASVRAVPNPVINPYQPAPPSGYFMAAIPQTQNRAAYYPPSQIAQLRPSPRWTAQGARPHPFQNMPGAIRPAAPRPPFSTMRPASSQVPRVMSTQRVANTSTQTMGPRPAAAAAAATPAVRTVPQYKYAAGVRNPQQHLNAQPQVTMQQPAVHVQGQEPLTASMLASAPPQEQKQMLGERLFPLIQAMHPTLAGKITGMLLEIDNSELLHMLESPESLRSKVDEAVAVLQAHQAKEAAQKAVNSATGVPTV
# UUG fidelity = modulators of yeast start codon fidelity, primary screen, whole organism, S. cerevisiae, single point, plate reader; activity score, % at 18.7 µM; S. cerevisiae UUG-firefly luciferase reporter, luminescence/redox ratio; hit rate 0.13% among 350,000;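 active means replicate mean at a twofold rise or more, about +100% in these data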;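 further: firefly luciferase made from a UUG start codon reports start codon fidelity; reporter light over untreated wells divided by growth signal over untreated wells; some hits fall short of that in this replicate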
# HIV Env fusion = inhibitors of HIV-1 Env-driven cell-cell fusion, primary screen, HeLa-JRFL effector, CEM21 target cells, luciferase. hit rate 1.1% among 360,000. inhibition, % at 12.3 µM;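 active means mean replicate inhibition score of at least 50 and every replicate individually at or above 50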;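 further: 0% = plate neutral controls and 100% = maraviroc near 300 nM; one replicate is shown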
# Rce1 inh = yeast Rce1p protease inhibitors, primary screen, biochemical, fluorescence, cell-free homogeneous. CAAX prenyl protease 2 (Saccharomyces cerevisiae (strain ATCC 204508 / S288c)), Q03530. yeast membranes, quenched prenylated peptide cleavage fluorescence. calls only. hit rate 0.27% among 290,000. AID 2563, 2010;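 active means fall in fluorescence gain of 50% or more versus controls, with final raw signal at or below 3038400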;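 further: plate controls were neutral control wells for no effect and wells lacking membranes for full effect; tested at 10 µM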
# Target sequence (Q03530 whole entry, looked up): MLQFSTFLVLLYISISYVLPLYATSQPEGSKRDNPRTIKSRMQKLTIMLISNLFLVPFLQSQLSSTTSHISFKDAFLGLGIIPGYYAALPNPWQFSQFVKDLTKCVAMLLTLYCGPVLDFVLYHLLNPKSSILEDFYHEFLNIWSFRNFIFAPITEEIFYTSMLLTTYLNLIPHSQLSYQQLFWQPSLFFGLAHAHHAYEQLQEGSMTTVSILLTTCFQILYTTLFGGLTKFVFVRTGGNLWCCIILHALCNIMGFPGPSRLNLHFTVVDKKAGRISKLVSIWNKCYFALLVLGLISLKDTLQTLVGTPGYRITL
# MT1-MMP act inh = blockers of MT1-MMP proenzyme processing, primary screen, HT1080 RFP-PRO-GFP cells, GFP/RFP fluorescence; GFP/RFP ratio fluorescence, overnight; percent of plate control window, DMSO zero; GFP/RFP ratio change, % at 20 µM; hit rate 0.061% among 360,000; AID 651647, 2012;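 active means GFP/RFP ratio change of at least 30% with cell ATP level not reduced by more than half and red fluorescence within 50% of control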; further: strong numbers were not always called active
#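 Assay system – RFP-PRO-GFP reporter HT1080 cells · Compound dosing – single dose of 20 µM compound, 1% DMSO final · Incubation – overnight compound exposure at 37 °C · Measure – GFP/RFP fluorescence ratio · Benchmarks – DMSO wells and RFP-L50D-GFP cells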
# CSC inhib = cancer stem cell viability inhibitors, primary screen, luminescence; cancer stem cell-like cells viability; inhibition, % at 7.5 µM; hit rate 1.1% among 300,000; AID 2717, 2010;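 active means mean at 75% or more and at least half the replicates too; tested in HMLE shEcad cells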;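 further: 0% = median of negative and 100% = median of positive control wells; the first replicate is given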
# eIF4H FP inh retest = further read-out of eIF4H FP inh, marked with its call; inhibition, %; compound at 20 µM; confirmation average;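 mean of two retest wells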
# PABP FP inh retest = recorded beside PABP FP inh, whose call it bears; inhibition, %; compound at 20 µM; confirmation repeats;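 mean of two retest wells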
# MT1-MMP act inh RFP = also measured in MT1-MMP act inh; calls as there; RFP signal change, %; measured here: RFP expression control read;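 0 = vehicle wells; hits needed this value within 50% of zero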
# Active calls of the source: *; i = inactive; / = not tested or not shown; + = active, no number; & = joins results of further samples; [ ] = another dose, or the depositor's remark. This is a subset; the hit share may differ from the screen's.
SMILES,eIF4H FP inh,PABP FP inh,UUG fidelity,HIV Env fusion,Rce1 inh,MT1-MMP act inh,MT1-MMP act inh RFP,CSC inhib,others
CN1C(=O)CC(c2ccccc2)CC1=O,/,/,-12,/,i,-3,3,-7,
CC(=O)Nc1c(O)nc(SCC(=O)N2CCN(c3ccc(F)cc3)CC2)[nH]c1=O,-8,1,6,/,i,-2,-3,-3,
COC(=O)c1cccc(CC2(C)C(=O)Nc3cc(-c4ccccc4Cl)ccc32)c1 (stereo not drawn),/,/,-5,90*,/,-11,-21,/,
COCCNC(=O)Cc1cn(C)c2ccccc12,4,5,-18,/,i,2,4,-8,
Cc1cccc(Oc2nccc(C(F)(F)F)c2C(=O)Nc2ccc(F)cc2F)c1,-7,0,/,28,i,0,-2,8,
CCOC(=O)N1CCN(S(=O)(=O)c2ccc(NC(C)=O)cc2)CC1,-10,-3,-10,7,i,1,-5,-17,
CSc1n[nH]c(NC(=O)c2c(-c3c(Cl)cccc3Cl)noc2C)n1,-4,-4,/,-8,i,2,1,7,
N#Cc1cc2c(nc1SCc1ccccc1)CCCCC2,-7,9,-19,/,i,-3,-7,13,
O=Cc1ccc(OCCOc2ccc([N+](=O)[O-])cc2)cc1,6,0,-1,-39,i,1,5,1,
Cn1nc(C(=O)OCC(=O)c2ccc[nH]2)c2ccccc2c1=O,-3,-6,/,-5,i,8,5,-4,
O=C(CN1C(=O)CCS(=O)(=O)c2ccccc21)Nc1cccc(F)c1,3,-2,14,/,i,0,2,9,
Cc1nn(-c2ccccc2)c(C)c1CN(C)C(=O)c1ccc(S(=O)(=O)NCc2ccco2)cc1,/,/,10,-2,/,3,-7,/,
O=C(CCC(=O)Nc1ccccc1)N/N=C/C=C/c1ccccc1,-2,-6,/,/,i,4,1,/,
Cc1c(NC(=O)c2ccc(=O)oc2)c(=O)n(-c2ccccc2)n1C,5,-1,-6,/,i,3,5,-2,
CCOc1ccc(NC(=O)Nc2cccnc2)cc1,-8,-2,/,-30,i,-1,-5,15,
O=C(c1ccc2oc(CCc3ccccc3)nc2c1)N1CC[C@H](O)C1,-7,3,-24,-17,i,2,2,-8,
C=CCNC(=O)C1(c2ccccc2)CC1(Cl)Cl (stereo not drawn),-4,-2,-6,0,i,-3,2,-6,
CC(=O)c1ccc(NCC(=O)N2CCN(c3ccccc3)CC2)cc1,21,18,-12,/,/,-1,0,-15,
CCN(CC)C(=O)c1cnn(-c2ccccc2)c1NC(=O)c1cccs1,-12,7,-2,/,i,3,6,-5,
CC1(CC(=O)N/N=C/c2cc(Br)c(O)cc2O)OCCO1,-3,-11,37,-50,i,3,2,26,
Cc1cc(C)c(NC(=O)CCN2CCN(Cc3ccccc3)CC2)c(C)c1,/,/,-9,7,i,1,-3,4,
CCN(CC(=O)NCc1cccs1)C(=O)c1cccc(S(=O)(=O)Nc2ccccc2OC)c1,36*,60*,-16,1,i,1,5,-16,eIF4H FP inh retest=54*;PABP FP inh retest=71*
Cc1ccccc1OCC(=O)OCC(=O)c1ccc[nH]1,/,/,-17,-10,/,2,7,/,
COc1ccc(-c2ccc(CCC(=O)O)n2-c2ccccc2O)cc1,2,3,5,0,i,-8,1,26,
Cc1ccc(C(=O)NCCCN2CCOCC2)cc1,/,/,/,/,i,5,3,9,

# Looked up by compound from above, two records:
SMILES,eIF4H FP inh,PABP FP inh,UUG fidelity,HIV Env fusion,Rce1 inh,MT1-MMP act inh,MT1-MMP act inh RFP,CSC inhib,others
CCN(CC)C(=O)c1cnn(-c2ccccc2)c1NC(=O)c1cccs1,-12,7,-2,/,i,3,6,-5,
CCOC(=O)N1CCN(S(=O)(=O)c2ccc(NC(C)=O)cc2)CC1,-10,-3,-10,7,i,1,-5,-17,

# (more compounds)
SMILES,eIF4H FP inh,PABP FP inh,UUG fidelity,HIV Env fusion,Rce1 inh,MT1-MMP act inh,MT1-MMP act inh RFP,CSC inhib,others
Cc1cc(Nc2ccccc2C(=O)O)n(-c2cccc(Cl)c2)n1,-4,8,/,-2,i,-4,0,15,
C=CCN(Cc1cc(OC)ccc1OC)S(=O)(=O)N(C)C,-2,-5,-10,/,i,0,0,-7,
COC(=O)c1cc(S(=O)(=O)n2nc(C)c(Br)c2C)c(Cl)cc1Cl,-13,-2,-12,/,i,-2,-3,45,
COc1ccc(-c2nc(CS(=O)(=O)CC(=O)NCCCN3CCOCC3)c(C)o2)cc1,-12,5,-9,4,i,-4,-7,-7,
CCCC(=O)N1CCN(c2ccc(NC(=O)c3ccc4c(c3)OCCO4)cc2)CC1,-16,-4,3,3,i,2,-2,-4,
COc1ccc(NC(=O)NN2CCN(C)CC2)cc1,6,-8,-7,3,i,-3,4,-10,
O=C(Nc1cccc(NC(=S)NC(=O)c2cccs2)c1)c1ccccc1,-1,12,-2,-6,i,2,4,-4,
COc1cc2[nH]c(=O)n(CCCCCC(=O)NCCCN3CCC(C)CC3)c(=O)c2cc1OC,6,-2,-5,-37,/,-7,-2,-11,
Cc1nc(NC(=O)CN2CCOCC2)sc1C(=O)N(C)C,8,-3,-12,-13,i,-1,4,-7,
COc1ccc(C(=O)N/C(=C\c2ccc3c(c2)OCO3)C(=O)Nc2cccc(C(=O)O)c2)cc1,-17,-2,-9,-34,i,5,2,0,
CC1=CC2=NC(=O)/C(=C\c3cccn3CCOc3cccc(C)c3)C(=N)N2O1,-6,4,/,/,i,-14,-12,4,
COC(=O)c1nc[nH]c1C(=O)OC,-2,-6,-7,13,i,2,8,-25,
CN(C)S(=O)(=O)c1cccc(NC(=O)C2CCCN(C(=O)c3ccc(Cl)cc3)C2)c1 (stereo not drawn),/,/,-8,17,/,-5,-19,/,
COc1ccc(S(=O)(=O)N2CCCCC2c2cc(C(=O)Nc3ccc(OC)cc3C)no2)cc1 (stereo not drawn),/,/,-37,26,/,-1,-13,/,
COc1ccc(-c2nc(-c3ccccc3)ncc2S(C)(=O)=O)cc1,11,-4,/,19,i,2,3,5,
Cc1ccc2c(c1)C1CN(C)CCC1N2C(=S)Nc1ccc(OC(F)F)cc1 (stereo not drawn),-6,-8,/,5,i,4,4,2,
CCCOc1ccc(/C(O)=C2/C(=O)C(=O)N(CCOC)C2c2cccnc2)cc1 (stereo not drawn),-3,3,/,/,i,/,/,1,
Cc1nc2ccc(C(=O)OCC(=O)N(C)c3ccccc3)cc2nc1C,/,/,-5,-11,/,-1,1,/,
O=C(CCc1nnc(Cc2c[nH]c3ccccc23)o1)NCCC1CCCCO1 (stereo not drawn),/,/,-7,-3,/,-8,5,/,
Cc1ccccc1NC(=O)CCNS(=O)(=O)c1ccc2[nH]c(=O)oc2c1,-5,2,-1,1,i,6,3,-20,
COc1ccc(CN2CCNC(=O)C2CC(=O)NC2CCCCCC2)c(F)c1 (stereo not drawn),2,8,7,27,i,0,3,8,
Cc1ccc(-n2c(C)nnc2SCC(=O)NC2CCCC2)cc1,-4,-6,4,-5,i,1,4,-7,
O=C(CN(Cc1ccco1)C(=O)CNS(=O)(=O)c1ccc(F)cc1)NCCc1ccccc1,3,2,-13,/,i,1,0,-5,
C#CCN1CCc2onc(-c3ccccc3OC)c2C1=O,/,/,-16,-19,/,0,1,/,
O=C(Cc1ccccc1F)Nc1nc(-c2ccc(F)c(F)c2)cs1,-12,0,-7,-26,i,-7,-6,60,

# Next records.
SMILES,eIF4H FP inh,PABP FP inh,UUG fidelity,HIV Env fusion,Rce1 inh,MT1-MMP act inh,MT1-MMP act inh RFP,CSC inhib,others
O=C(O)CC(SCC(=O)Nc1ccc(S(=O)(=O)N2CCCC2)cc1)C(=O)O (stereo not drawn),-10,-11,-19,-62,i,-4,1,8,
CCC(C(=O)O)n1nc(-c2ccccc2)c2cc(Cl)ccc21 (stereo not drawn),4,1,/,6,i,1,1,-6,
COc1ccccc1NC(=O)c1csc(-n2nc(C)cc2C(F)(F)F)n1,-3,-6,-5,-26,i,1,3,-3,
CC(C)CNC(=O)CC1Nc2ccccc2NC1=O (stereo not drawn),1,-10,-8,/,i,-2,5,3,
Cc1sc2ncn(CC(=O)N3CCN(c4ccccc4)CC3)c(=O)c2c1S(=O)(=O)N1CCOCC1,-1,11,-25,-4,i,0,2,-1,
C#CCNC(=O)C1=C[C@@H](C2CCCCC2)C[C@@H](OCc2ccc(CO)cc2)O1,-8,1,15&-16,-8[16.7 µM],+,2,-18,-1,
COc1ccc(S(=O)(=O)Nc2ccc3c(c2)C(=O)N([C@H](C)CO)C[C@@H](C)[C@@H](CN(C)S(=O)(=O)c2ccc(Cl)cc2)O3)cc1,/,/,0,-43,/,-5,-5,-27,
CN1CCN(C(=O)c2c(O)c3cccc4c3n(c2=O)CC4)CC1,9,14,/,/,i,3,2,-6,
COc1ccccc1CN1C(=O)CCC1(C)C(=O)NCc1cccnc1 (stereo not drawn),-8,-9,-20,-5,i,6,9,-10,
CC1SC(c2ccc(F)cc2)NC1=O (stereo not drawn),8,7,/,1,i,0,0,-4,
CCn1c(SCc2nc(-c3ccc(OC)c(OC)c3)no2)nnc1-c1cccs1,2,9,5,/,i,-1,-9,-11,
Cc1ccc(C)c(CN2C(=O)CSc3ccc(C(=O)N4CCCC4)cc32)c1,4,0,0,-8,i,-6,-1,-20,
O=S(Cc1cc(Sc2ccccc2)nc(-c2ccccc2)n1)c1ccccc1 (stereo not drawn),4,-6,/,/,i,-11,-14,8,

# Arranged by formula weight (smallest number first): 13 of the compounds above
SMILES,eIF4H FP inh,PABP FP inh,UUG fidelity,HIV Env fusion,Rce1 inh,MT1-MMP act inh,MT1-MMP act inh RFP,CSC inhib,others
O=Cc1ccc(OCCOc2ccc([N+](=O)[O-])cc2)cc1,6,0,-1,-39,i,1,5,1,
CN1CCN(C(=O)c2c(O)c3cccc4c3n(c2=O)CC4)CC1,9,14,/,/,i,3,2,-6,
COc1ccc(-c2ccc(CCC(=O)O)n2-c2ccccc2O)cc1,2,3,5,0,i,-8,1,26,
O=C(Cc1ccccc1F)Nc1nc(-c2ccc(F)c(F)c2)cs1,-12,0,-7,-26,i,-7,-6,60,
Cc1nc2ccc(C(=O)OCC(=O)N(C)c3ccccc3)cc2nc1C,/,/,-5,-11,/,-1,1,/,
CCOC(=O)N1CCN(S(=O)(=O)c2ccc(NC(C)=O)cc2)CC1,-10,-3,-10,7,i,1,-5,-17,
CC1(CC(=O)N/N=C/c2cc(Br)c(O)cc2O)OCCO1,-3,-11,37,-50,i,3,2,26,
O=C(CCc1nnc(Cc2c[nH]c3ccccc23)o1)NCCC1CCCCO1 (stereo not drawn),/,/,-7,-3,/,-8,5,/,
C#CCNC(=O)C1=C[C@@H](C2CCCCC2)C[C@@H](OCc2ccc(CO)cc2)O1,-8,1,15&-16,-8[16.7 µM],+,2,-18,-1,
CCn1c(SCc2nc(-c3ccc(OC)c(OC)c3)no2)nnc1-c1cccs1,2,9,5,/,i,-1,-9,-11,
COC(=O)c1cc(S(=O)(=O)n2nc(C)c(Br)c2C)c(Cl)cc1Cl,-13,-2,-12,/,i,-2,-3,45,
O=C(CN(Cc1ccco1)C(=O)CNS(=O)(=O)c1ccc(F)cc1)NCCc1ccccc1,3,2,-13,/,i,1,0,-5,
CCN(CC(=O)NCc1cccs1)C(=O)c1cccc(S(=O)(=O)Nc2ccccc2OC)c1,36*,60*,-16,1,i,1,5,-16,eIF4H FP inh retest=54*;PABP FP inh retest=71*
